Screens from PubChem.
gsp antag: qHTS for Antagonists of gsp, the Etiologic Mutation Responsible for Fibrous Dysplasia/McCune-Albright Syndrome: qHTS | gsp-mutant cells, cAMP HTRF, 30 min; control for the full effect not named in the record | Potency, µM (titrated, usually from 76.9 µM), inactives show at the highest dose activity change, negative = inhibition, usual class: inhibitors | hit rate 0.4% among 340,000; active = falling curve of any shape with a large fitted effect; inconclusive = falling curve, mostly with a smaller effect; inactive = flat or rising curve; cell line not stated here;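 note: intracellular cAMP measured with PDE inhibitor Ro 20-1724 present during compound exposure; potency is the fitted concentration of half-maximal effect; % is set by controls: 0 for no effect and ±100 for the full control effect; nearly all actives have a fitted effect of over 65% in size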
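G418-selected cells were plated in DMEM/10% FBS for 16-24 h at 37C, then treated with compounds plus the PDE inhibitor […] (300 uM solution added) for 30 min at 37C. Intracellular cAMP was measured by HTRF after 30 min lysis at room temperature.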
TRPML1 blocker: qHTS for Inhibitors of the Human Mucolipin Transient Receptor Potential 1 (TRPML1); Mucolipin-1 (Homo sapiens), Q9GZU1; TRPML1-inducible cells, Ca2+ dye fluorescence, FDSS; stronger effect = lower value; inhibition of EC80 agonist-evoked calcium signal; activity change, negative = inhibition, % (test concentration not listed); hit rate 0.02% among 390,000; AID 624415, 2012; in the data active means activity change below about -50%; inconclusive means about -30% to -50%; inactive means above about -30%;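 note: stimulus is agonist 54-4 at its EC80 concentration; % is set by controls: 0 for no effect and ±100 for the full control effect; compound concentration not given in the record; the text of the record puts the active cut at -80%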
Target sequence (Q9GZU1 whole entry, looked up): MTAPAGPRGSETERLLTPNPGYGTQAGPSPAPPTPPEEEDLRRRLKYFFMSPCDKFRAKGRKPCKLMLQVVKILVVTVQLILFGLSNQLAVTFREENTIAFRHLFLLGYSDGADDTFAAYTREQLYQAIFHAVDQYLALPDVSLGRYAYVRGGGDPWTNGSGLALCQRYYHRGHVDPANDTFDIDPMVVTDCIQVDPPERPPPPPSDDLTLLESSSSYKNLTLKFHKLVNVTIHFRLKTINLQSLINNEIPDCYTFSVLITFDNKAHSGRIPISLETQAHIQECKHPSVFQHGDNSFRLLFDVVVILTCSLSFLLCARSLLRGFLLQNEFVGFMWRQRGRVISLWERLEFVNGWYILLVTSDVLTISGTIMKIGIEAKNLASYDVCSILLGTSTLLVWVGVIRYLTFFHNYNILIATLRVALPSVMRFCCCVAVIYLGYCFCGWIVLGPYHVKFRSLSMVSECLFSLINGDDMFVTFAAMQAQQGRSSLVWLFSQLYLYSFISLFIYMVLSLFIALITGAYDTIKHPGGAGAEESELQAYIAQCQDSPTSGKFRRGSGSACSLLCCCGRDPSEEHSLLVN
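TRPML1-DL cells, Tet-induced overnight (~16 h, 37 °C) at 1,500 cells/well, were loaded with Ca8 no-wash dye plus quencher for 45-90 min at room temperature. Compounds were pinned during FDSS kinetic reading; agonist 54-4 at EC80 (4 uM final) then added.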
TRPML1 ag: qHTS for Agonists of the Human Mucolipin Transient Receptor Potential 1 (TRPML1); activation, % (no concentration beside the values); Mucolipin-1 (Homo sapiens), Q9GZU1; hit rate 0.12% among 410,000; TRPML1-expressing cells, Ca2+ dye fluorescence, FDSS; host cell line not named in the record; reference of the full effect not given here; in the data active = activation above about 50%; inconclusive = about 30% to 50%; inactive = below about 30%; note: 0% is about no effect; the text of the record puts the active cut at 80%
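Cells: TRPML1-DL, 1X Tet inducer, ~16 h at 37 degrees C/5% CO2. Dye: ABD Ca8 no-wash + quencher, 45-90 min RT. Read: 10 s baseline, compound add, 110 s agonist phase; 54-4 EC80 (4uM final), 110 s antagonist phase.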
ClpP mod: qHTS Assay for Activators of ClpP | purified B. subtilis ClpP, FRET peptide cleavage, 20 min | Potency, µM (top dose mostly 57.5 µM), for inactives: at the highest dose activity change, negative = active | hit rate 1.9% among 340,000 | AID 651965, 2013; active = well fitted falling curve with a large enough effect; inconclusive = small, poorly fitted or top-dose-only effect; inactive = no such curve, though single readings can be large or run the other way; note: potency is the fitted concentration of half-maximal effect; the source files actives as falling curves though it sought activators and does not explain the sign; nearly all actives have a fitted effect of over 65% in size; many hits overshoot -100%
Target sequence (P80244 whole entry, looked up): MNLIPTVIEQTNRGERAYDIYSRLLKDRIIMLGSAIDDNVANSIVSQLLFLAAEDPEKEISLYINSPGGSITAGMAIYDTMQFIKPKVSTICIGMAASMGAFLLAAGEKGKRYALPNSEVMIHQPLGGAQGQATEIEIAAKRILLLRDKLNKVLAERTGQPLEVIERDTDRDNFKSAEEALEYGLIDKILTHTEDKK
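Buffer: 100 mM Tris/HCl pH8, 100 mM KCl, 0.05% low protease BSA, 2.5% glycerol, 0.01% Tween-20. ClpP 10 microg/mL final; 20 min RT; delta FRET normalized to ADEP and DMSO controls.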
gsp ag: qHTS for Agonist of gsp, the Etiologic Mutation Responsible for Fibrous Dysplasia/McCune-Albright Syndrome: qHTS | gsp mutant cells, cAMP HTRF, 30 min; control for the full effect not named in the record | Potency, µM (series often up to 76.9 µM), for the others: at the highest dose activation (cAMP increase), most hits filed as activators | hit rate 0.13% among 340,000; active = well fitted activation curve with a large enough effect; inconclusive = small, poorly fitted or top-dose-only effect, or another doubt; inactive = no such curve, though single readings can be large or run the other way; cell line not stated here;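 note: phosphodiesterase inhibitor Ro 20-1724 added with compounds to block cAMP breakdown; potency is the fitted concentration of half-maximal effect; nearly all actives have a fitted effect of over 60% in size; about a fifth of the inactives were tested at one dose only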
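Cells stably selected in G418 were plated at 2000/well, grown 16-24 hr, then given compounds in DMSO with the PDE inhibitor […] (300 uM solution added) for 30 min at 37C; cAMP was read by HTRF.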
Menin MLL FP FL: qHTS Assay for Inhibitors Targeting the Menin-MLL Interaction in MLL Related Leukemias: Competition With Fluorescein Labeled MLL-derived Peptide; FP activity change, % at 61.4 µM; Fluorescence polarization, fluorescein-MLL peptide displacement from menin; 290,000 tested, under 10 active; inconclusive = falling polarisation curve, or a change in total fluorescence; inactive = total fluorescence flat and polarisation flat or rising; no compound was filed as active; the % refers to the polarisation; negative = inhibition;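 note: % of control where 0% means no effect; inhibitors lower the polarisation; unlabelled MLL peptide was the positive control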
* marks the source's active call; other numbers are inactive results; u = inconclusive; x = no result given; [ ] = another dose, or the depositor's remark. Random draw from the library; 2.1% or so of the library scored in one or more.

SMILES | gsp antag | TRPML1 blocker | TRPML1 ag | ClpP mod | gsp ag | Menin MLL FP FL
COc1ccc(C(=O)N2CCCC(O)C2)cc1OC1CCN(C(C)C)CC1 (configuration not stated) | 15% | 12 | 1.3 | 0.5% | -25% | x
CCN(CC)c1ccc(NS(=O)(=O)c2ccc(-c3coc(C)n3)cc2)c(C)c1 | x | 7 | 3.0 | -4.4% | x | x
COc1cccc(-c2sc3ccccc3c2-c2ccc(OCCN3CCCC3)cc2)c1 | 9% | 12 | 0.0 | u | x | x
CC1=NNC(=O)C1C(c1cccc(O)c1)C(C#N)C#N (configuration not stated) | 7% | 11 | -0.3 | 1.0% | 3% | 3.7
Cn1c(=O)c2c(ncn2CC(COCc2ccc(Cl)cc2)OCc2ccc(Cl)cc2)n(C)c1=O (configuration not stated) | -12% | -5 | 0.6 | -4.0% | -7% | 6.0
CCCC(=O)Nc1ccccc1NC(=O)c1cc(OC)c(OC)c(OC)c1 | 3% | -3 | 0.2 | -0.4% | -4% | 1.5
N#C/C(=C(/O)Cc1cccc2ccccc12)c1nc2ccccc2s1 | u | 13 | -0.6 | -1.6% | 0% | 3.0
O=c1c2ccccc2c(/C=N/c2nnc(Cc3ccccc3)s2)c(O)n1-c1ccc(Cl)cn1 | -7% | 14 | 0.6 | x | 11%[15.4 µM] | u
Cc1cc(C(=O)OCC(=O)NC(C)C)c(C)o1 | -7% | 2 | -0.5 | 1.6% | -22% | -0.2
Cc1ccc2oc(C(=O)NCc3ccccc3)cc(=O)c2c1 | -2% | -8 | 0.3 | x | 27% | 3.8
O=C(OCC(=O)N1CCc2ccccc21)c1c2c(nc3ccccc13)CCCC2 | -21% | 27 | 1.8 | -5.7% | u | -1.3
COc1ccc(OC)c(Nc2ncnc3c2cnn3-c2cccc(Cl)c2)c1 | x | 28 | -0.2 | 4.1% | x | x
CCOC(=O)Cc1csc(NC(=O)C(CC(C)C)NC(=O)C2CCCCC2)n1 (configuration not stated) | 11% | -18 | 1.0 | -3.1% | -74%[inhibitor] | -0.2
CCC(=O)N(CCC(c1ccco1)c1ccccc1OC)Cc1cccs1 (configuration not stated) | u | 19 | 2.1 | -1.5% | -17% | 3.0
CC(=O)NN1C(=O)/C(=C/c2ccc(C(C)C)cc2)SC1=S | 0% | 30 | 1.1 | 0.6% | -6% | 4.7
O=C(O)c1ccccc1CSc1nc2ccccc2n1Cc1ccccc1C(=O)O | 0% | -5 | -0.3 | x | u | 0.7
COC1CCN(C(=O)CC2C(=O)NCCN2CC(C)(C)C)CC1 (configuration not stated) | -5% | 34 | 1.8 | -17% | u | -24
CCOc1ccc(-c2nnc(SCC(=O)NC3CCCCC3)nc2-c2ccc(OCC)c(OC)c2)cc1OC | x | -18 | -0.7 | -12% | x | x
COc1ccc(CCNC(=O)c2cc(S(=O)(=O)N3CCC4(CC3)OCCO4)ccc2F)cc1OC | 11µM* | 6 | 0.0 | x | u | -0.2
CC1=C(C)/C(=N\OS(=O)(=O)c2ccc(C)cc2)C=CC1=O | 1% | -22 | 7.7 | -1.3% | 2% | 1.0
O=C(Oc1nsnc1N1CCCCC1)N1CCOCC1 | 11% | 2 | -0.4 | 0.2% | u | 2.2
COCC(C)n1c(SCC(=O)Nc2c(C)n(C)n(-c3ccccc3)c2=O)nc2ccccc2c1=O (configuration not stated) | 1% | -9 | 0.0 | 0.3% | -23% | x
O=C(NCCn1cc(SCc2ccc(Br)cc2)c2ccccc21)c1cccs1 | x | -5 | 1.4 | 1.4% | x | x
CCOc1ccc(-n2cc(C(=O)Nc3cccc(OC)c3)c3cc(OC)c(OC)cc3c2=O)cc1 | -8% | 6 | 0.3 | u | -3% | 6.5
CCc1nc2c(OCC(=O)C(C)(C)C)cccn2c1N(C)C(=O)C1CC1 | x | 6 | -0.1 | -5.9% | x | x
O=C(c1cc(-c2ccc(Cl)cc2Cl)on1)N1CCCCCC1 | -16% | -6 | -0.2 | x | -14%[15.4 µM] | 5.4
Fc1ccc(CNc2ncnc3c2cnn3-c2ccccc2)cc1 | 16% | -12 | -0.2 | 35µM* | -5% | 1.5
Cc1ccc(NC(=O)Cc2nnc(SCC(=O)Nc3ccc(N4CCOCC4)cc3)n2C)cc1 | 8% | 0 | 1.9 | x | -2%[15.4 µM] | 1.5
C=CCn1c(-c2cccc(S(=O)(=O)N3CCOCC3)c2)n[nH]c1=S | -6% | -22 | -1.1 | x | 9%[15.4 µM] | x
O=S(=O)(c1ccccc1)c1cnn(-c2ccccc2)c1-c1ccc(Cl)cc1 | u | -23 | 1.0 | 0.2% | 23% | -0.6

Record cards, from the list above. Order of values: gsp antag	TRPML1 blocker	TRPML1 ag	ClpP mod	gsp ag	Menin MLL FP FL
Entry for CCOc1ccc(-c2nnc(SCC(=O)NC3CCCCC3)nc2-c2ccc(OCC)c(OC)c2)cc1OC → x	-18	-0.7	-12%	x	x
Entry for O=C(NCCn1cc(SCc2ccc(Br)cc2)c2ccccc21)c1cccs1 → x	-5	1.4	1.4%	x	x
Entry for O=C(O)c1ccccc1CSc1nc2ccccc2n1Cc1ccccc1C(=O)O → 0%	-5	-0.3	x	u	0.7
Entry for O=C(Oc1nsnc1N1CCCCC1)N1CCOCC1 → 11%	2	-0.4	0.2%	u	2.2

Following part.
SMILES | gsp antag | TRPML1 blocker | TRPML1 ag | ClpP mod | gsp ag | Menin MLL FP FL
CCn1nc(C)cc1C(=O)NC1CC(C)(C)Cc2c1cnn2-c1cccc(F)c1 (configuration not stated) | -9% | 5 | -0.3 | 0.8% | 2%[15.4 µM] | -1.5
COc1ccc2cc3cc(C(=O)NCC4COc5ccccc5O4)oc3nc2c1 (configuration not stated) | -9% | -10 | 2.7 | 35µM* | 8% | 3.4
O=C(/C=C/c1ccccc1)NC(=S)Nc1ccccc1C(=O)NC1CCCCC1 | -5% | -1 | -0.2 | -5.2% | -4% | 3.2
Cc1oc(C(C)(C)C)cc1C(=O)NC(Cc1ccccc1)C(=O)O (configuration not stated) | 13% | -3 | 0.0 | 0.4% | -10%[15.4 µM] | 6.5
COc1ccc(Br)cc1CN(C)C(=O)C1=CC=CN2CCS(=O)(=O)N=C12 | 5% | -18 | 0.3 | -17% | -37%[inhibitor] | x
CCn1cc(Cl)c(C(=O)Nc2ccc3c(c2)OCCO3)n1 | 4% | 3 | 0.4 | 0.9% | -5%[15.4 µM] | -0.8
CCc1ccc(NC(=S)N(CCCN2CCOCC2)Cc2ccco2)cc1 | -5% | -5 | -0.3 | x | 3% | 1.6
CC(=O)N1CCC(C(=O)Nc2nc(-c3ccccc3)ns2)CC1 | -4% | 10 | -0.5 | 2.9% | -11% | 1.3
CCOc1ccc(NC(=O)C2CCCN(C(=O)NCc3ccccc3)C2)cc1 (configuration not stated) | 6% | 24 | 0.4 | 11% | 2% | 4.1
O=C(Nc1ccc(-c2cn3ccsc3n2)cc1)C1COc2ccccc2O1 (configuration not stated) | 40µM* | -6 | 0.7 | -17% | -29% | 1.3
Cc1ccc(C)c(NC(=O)CCN2C(=O)C3CC=CCC3C2=O)c1 (configuration not stated) | 6% | 2 | -0.4 | -1.0% | u | x
COc1ccccc1NS(=O)(=O)c1ccc(-c2cc(C)no2)s1 | -7% | 9 | 2.1 | -2.1% | -6% | -1.8
O=S(=O)(c1ccc(F)cc1)N1CCC(n2c(C(F)(F)F)nc3cccnc32)CC1 | x | -20 | -0.5 | -2.4% | x | x
O=C(Cc1ccccc1)NC1CCN(C(=O)c2ccc([N+](=O)[O-])cc2)CC1 | 0% | 7 | 0.6 | x | -21%[15.4 µM] | 0.0
Cc1cc(Cn2nc(C(=O)NCc3cccc(C(F)(F)F)c3)cc2-c2ccccc2)on1 | -3% | -1 | 2.1 | -3.0% | x | x
CN1C(=O)c2ccc(N(C)C)cc2C1=O | 1% | 1 | 1.4 | 2.4% | 10% | -9.0
Cc1csc(=O)n1CC(=O)OCc1nnc(-c2ccc([N+](=O)[O-])cc2)o1 | 10% | -4 | -0.5 | 1.1% | -1% | x
C=CCSc1nnc(-c2c[nH]c3ccccc23)n1CC | -8% | -16 | -0.5 | 1.8% | -35%[inhibitor] | -4.5
COc1ccc(Cc2nc3ccc(C(=O)NCc4ccc(OC)cc4OC)cc3o2)cc1 | x | -7 | 1.4 | -4.5% | x | x
COc1ccc(N2CCN(CCCNC(=O)Cn3c(=O)c4cccn4c4cccnc43)CC2)cc1 | -3% | 1 | -0.4 | u | 5% | x
COc1ccc(S(=O)(=O)Nc2cccc(-c3ccc(N4CCCC4)nn3)c2)cc1F | x | -1 | 0.5 | -0.8% | x | x
COc1ccc(CNC(=O)c2cccc(N3CCCS3(=O)=O)c2)cc1 | x | -5 | 0.2 | 2.0% | x | x
Cc1ccc(C(=O)NCCNS(C)(=O)=O)cc1 | 13% | 8 | 0.7 | -0.1% | u | -2.8
CC(NC(=O)c1ccc(NC2=NC3CS(=O)(=O)CC3S2)cc1)c1ccccc1 (configuration not stated) | 3% | -9 | -0.1 | 0.9% | -4% | -1.0
CCCC(=O)Nc1cccc(-c2cn3ccsc3n2)c1 | -2% | -2 | 1.5 | -5.6% | -1% | 0.0
Cc1cc(C)nc(N/N=C/c2ccc3c(c2)OCCO3)n1 | 3% | 19 | -0.4 | x | 6% | -3.6
Cc1ccccc1OCC(=O)NCC(c1ccc(Cl)cc1)N1CCOCC1 (configuration not stated) | x | 2 | -0.1 | 0.4% | x | x
NC(=O)CCCn1c(C(=O)c2cc(Cl)c(N)c(Cl)c2)c2ccc([N+](=O)[O-])cc2[n+]1[O-] | u | 6 | -0.1 | -0.3% | u | x
COc1ccc(NC(=O)c2cc(S(=O)(=O)N3CCCC3)ccc2C)cn1 | -4% | 9 | -0.9 | -1.4% | -23% | x
COc1ccc(Cn2c(CCC(=O)Nc3ccc(C)cc3C)nc3cccnc32)cc1 | x | 16 | 1.2 | -9.4% | x | x
CC1=C(C(=O)OCC2CCCO2)C(c2ccc(F)cc2)NC(=O)N1 (configuration not stated) | 0% | -6 | 1.4 | x | 4% | 0.7
